# MT1-MMP reporter: inhibitors of MT1-MMP promoter transcription, cell-based, luciferase reporter, luminescence (AID 618); MT1-MMP promoter luciferase reporter cells, luminescence; calls from a first round at 10 µM; hits with a dose series show EC50 in µM; 87,000 tested, 0.62% active;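 active means over half of the reporter light lost at 10 µM or EC50 under 50 µM; inactive means the rest and hits that failed the dose series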;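 further: actives suppress MT1-MMP promoter-driven transcription so potencies describe inhibitors; HT1080 fibrosarcoma cells; overnight exposure; toxic or luciferase-blocking compounds were not removed from the actives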
# WNV NS2B-NS3 inh: inhibitors of West Nile virus NS2B-NS3 protease; 65,000 tested, 0.18% active; z-score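 (tested at a level between 10 and 100 µM)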; AID 577; P06935; WNV NS2B-NS3 protease, fluorogenic substrate Ex360/Em465; hits give low values;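 active means z-score at -3 or under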;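 further: score is relative to mean and spread of the compound wells of a plate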
# Target sequence (P06935 1371-1501 limits assumed): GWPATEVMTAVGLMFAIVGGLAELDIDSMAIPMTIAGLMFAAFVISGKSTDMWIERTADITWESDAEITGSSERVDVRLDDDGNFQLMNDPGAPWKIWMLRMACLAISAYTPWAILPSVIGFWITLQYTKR
# Target sequence (P06935 1502-1679 limits assumed): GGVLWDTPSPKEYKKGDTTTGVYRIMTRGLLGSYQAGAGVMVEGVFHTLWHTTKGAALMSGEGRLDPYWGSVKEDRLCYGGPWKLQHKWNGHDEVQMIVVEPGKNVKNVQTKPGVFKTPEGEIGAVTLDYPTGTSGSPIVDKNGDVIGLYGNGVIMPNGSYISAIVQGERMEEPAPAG
# Hsc70 ATP site: Hsc70 inhibitors, probe displacement, primary screen, biochemical, fluorescence polarization (AID 568) | Hsc70 fluorescence polarization, probe displacement; higher % means a stronger effect; strong numbers were not always called active | one-dose displacement, % at 20 µM; IC50 in µM for titrated hits | 83,000 tested, under 10 active;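 active means displacement above 50% without optical interference and an IC50 on retest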;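 further: ATPase domain with a fluorescein-tagged ATP probe; 0% = vehicle and 100% = excess ADP; read after one hour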
# Starred values were filed as active, the others as inactive; i = inactive; . = no result given. A portion of the library; count on the stated rates, not on these rows.
nr	mol	MT1-MMP reporter	Hsc70 ATP site	WNV NS2B-NS3 inh
1	COc1cc(C(=O)N(Cc2cc3cc(C)ccc3[nH]c2=O)CC2CCCO2)cc(OC)c1OC (stereo not given)	i	1.8%	0.46
2	Cc1ccc(OCc2nnc(SCC(=O)c3ccccc3)n2-c2ccccc2)cc1	i	-6.6%	.
3	Cc1cc(C)c(C(N)=O)c(Nc2ccc3c(c2)OCCO3)n1	i	8.9%	-1.3
4	CCn1c(CNC(=O)COC)nc2ccccc21	i	-0.5%	1.23
5	CCc1nnc(NC(=O)CSc2nnc(-c3cc4ccccc4cc3O)n2CC)s1	i	-2.0%	-1.39
6	Cc1ccc(OCc2nnc(SCc3cc(=O)[nH]c4ccccc34)o2)cc1	i	1.3%	-0.09
7	CCC(=O)NC(C)C(c1cccs1)N1CCOCC1 (stereo not given)	i	1.9%	0.76
8	Cc1ccc(NC(=O)NC2(C(=O)NCc3ccco3)CCCCC2)cc1	i	-5.8%	-1.88
9	C=CCSc1n[nH]c(-c2ccc(OCCCC)cc2)n1	i	-1.3%	-0.25
10	COCCCn1nnnc1SCC(=O)N1CCCC1	i	-2.7%	.
11	N#Cc1nc(COc2cccc(Cl)c2)oc1N1CCN(c2ccccc2)CC1	i	-1.7%	0.11
12	COC(=O)c1[nH]c2ccc(F)cc2c1NS(=O)(=O)c1ccc(OC)cc1OC	i	2.2%	-0.48
13	Cc1ccccc1C(=O)NC1CCN(C(=O)N2CCOCC2)CC1	i	-3.4%	.
14	Cc1ccc(C)n1NC(=O)c1cccc(Cl)c1	i	0.3%	.
15	O=C1c2cccc3cccc(c23)N1CN1CCN(c2ccccn2)CC1	i	5.5%	-0.91
16	CCOc1ccc(NS(=O)(=O)c2ccc3c(c2)CCN3C(=O)CCC(=O)O)cc1	i	-0.6%	-1.01
17	CCCCn1c(SCC(=O)NC(C)(C)C)nnc1-c1ccco1	i	-3.3%	0.74
18	Cc1ccc(S(=O)(=O)N2CCN(C(=O)CN3CCOCC3)C2C(C)C)cc1 (stereo not given)	i	1.7%	-0.56
19	CC(=O)Nc1cccc(OCC(O)Cn2cnc3ccccc32)c1 (stereo not given)	i	10.4%	0.05
20	Cc1cccc(-n2c(N)c(C(=O)NCCN3CCOCC3)c3nc4ccccc4nc32)c1	i	5.3%	0.75
21	CCN(/C=N/c1sc2c(c1C#N)CCCCC2)CC	i	-0.3%	.
22	N#Cc1c2n(c3c(=O)n(Cc4ccccc4Cl)cnc13)CCCC2	i	-3.3%	-1.47
23	O=S(=O)(c1cccc2cccnc12)N1CCN(Cc2ccc3c(c2)OCO3)CC1	i	1.7%	-0.41
24	COC(=O)c1c(NC(=O)CSc2nnc(Cn3nnc4ccccc43)n2C)sc(C)c1C	i	2.7%	0.43
25	CCc1nnc(NC(=O)C2CCN(c3nccc(C)n3)CC2)s1	i	6.9%	-0.44
26	CC(C)c1cc(C(=O)O)n[nH]1	i	4.6%	.
27	O=C(C1CCN(S(=O)(=O)N2CCCC2)CC1)N1CCCCC1	i	-0.3%	.
28	N#Cc1cccc(C(c2nnnn2C2CCCC2)N2CCCCCC2)c1 (stereo not given)	i	0.4%	.
29	CCCn1c(SCC(=O)N2CCN(c3ccccc3)CC2)nc2ccccc2c1=O	i	-1.3%	0.24
30	Cc1c(C)c2ccc(OCc3ccc(C(=O)O)o3)c(C)c2oc1=O	i	3.9%	-0.96
31	COc1ccc(Cc2nc3ccc(S(N)(=O)=O)cc3[nH]2)cc1OC	i	4.2%	0.57
32	CCC(=O)NC1(C(F)(F)F)C(=O)Nc2c1c(=O)[nH]c(=O)n2Cc1ccco1 (stereo not given)	i	-5.6%	-0.97
33	Cn1c(=O)[nH]c(=O)c2c1nc(NCc1ccccc1)n2CCCc1ccccc1	i	4.3%	0.61
34	N#CC1=C(N)Oc2n[nH]c(-c3cccs3)c2C1c1ccsc1 (stereo not given)	i	1.8%	-0.53
35	CCOc1ccc2nc(NC(=O)CSc3nnnn3C3CCCCC3)sc2c1	i	-2.6%	0.51
36	CCn1c(COc2ccc3c(c2)OCO3)nnc1SCC(=O)O	i	4.5%	.
37	Cc1cc(C)c(S(=O)(=O)N2CCC(C(N)=O)CC2)cc1C	i	2.6%	.
38	CCOC(=O)N1CCN(Cc2ccccc2F)CC1	i	3.7%	1.37
39	CC(C)(C)NC(=O)Cn1c(SCC(=O)NCc2cccs2)nc2ccccc21	i	-2.2%	-0.53
40	COc1cc(NC(=O)CN2c3cccc4cccc(c34)S2(=O)=O)cc(OC)c1OC	i	-0.1%	-0.43
41	COc1cc(C(=O)OCCN2CCCCC2)ccc1O	i	-5.7%	0.28
42	COCCNC(=O)C(c1ccc(C)o1)N(Cc1ccc(F)cc1)C(=O)Cn1nnc2ccccc21 (stereo not given)	i	0.2%	-0.68
43	O=C(c1nc2ccccc2s1)N1CCN(c2ccccn2)CC1	i	4.8%	-0.19
44	O=C(Oc1ccc(OC(=O)N2CCCCC2)cc1)c1ccccc1	i	-1.2%	0.3
45	Cc1ccc(-c2cc(-c3nnc(SCC(=O)N(C)CCC#N)n3N)c3ccccc3n2)cc1	i	-4.0%	-0.36
46	CCCC(=O)Nc1ccccc1N1CCN(C(=O)C(C)C)CC1	i	-1.0%	0.57
47	COc1ccc([C@H]2[C@H](C(=O)C(C)(C)C)N3N=Cc4ccccc4C3[C@]23N=C(c2ccccc2)OC3=O)cc1OC (stereo not given in full)	i	-3.4%	.
48	CC(=O)Nc1ccc(NC(=O)CNS(=O)(=O)c2ccc(C)cc2)cc1	i	-0.9%	-0.84
49	CN1/C(=C\C(=O)c2cccs2)Sc2ccccc21	i	-5.5%	-0.8
50	Cn1cnc2c1c(=O)n(CC(O)CO)c(=O)n2C (stereo not given)	i	0.9%	0.7
51	COc1cc(/C=N/NC(=O)CCc2c(C)n[nH]c2C)ccc1O	i	-0.4%	.
52	O=C(Cn1c(=O)n(Cc2ccc3c(c2)OCO3)c(=O)c2ccccc21)N1CCCc2ccccc21	i	-8.9%	0.46
53	CC(/C=C/c1ccccc1)NC(N)=O (stereo not given)	i	-2.2%	0.45
54	N#CCCn1cc(/C=N/O)c(-c2ccc(Cl)cc2)n1	i	-3.4%	.
55	COC(=O)c1oc2c(c1C)C1(CCC2)SCCS1	i	0.7%	0.12
56	CCn1c(=N)n(CC(=O)C(C)(C)C)c2ccccc21	i	1.1%	.
57	Cc1ccc2cc(C(c3nnnn3Cc3ccccc3)N3CCc4ccccc43)c(=O)[nH]c2c1C (stereo not given)	i	-3.9%	.
58	Cc1c(C(=O)Nc2ccc(F)cc2)oc2ccc(S(=O)(=O)N3CCCC3)cc12	i	-0.3%	-0.66
59	Cc1cc(C)n2c(SCC#N)nnc2n1	i	1.0%	0.27
60	CCOC(=O)c1[nH]c2ccccc2c1NC(=O)C(C)(C)C	i	4.1%	0.03

# Some entries already given, limited to WNV NS2B-NS3 inh:
entry | Molecule | WNV NS2B-NS3 inh
49 | CN1/C(=C\C(=O)c2cccs2)Sc2ccccc21 | -0.8
50 | Cn1cnc2c1c(=O)n(CC(O)CO)c(=O)n2C (stereo not given) | 0.7

# In the list so far, these contain a thiophene ring, fused or not.
nr	mol	MT1-MMP reporter	Hsc70 ATP site	WNV NS2B-NS3 inh
7	CCC(=O)NC(C)C(c1cccs1)N1CCOCC1 (stereo not given)	i	1.9%	0.76
21	CCN(/C=N/c1sc2c(c1C#N)CCCCC2)CC	i	-0.3%	.
24	COC(=O)c1c(NC(=O)CSc2nnc(Cn3nnc4ccccc43)n2C)sc(C)c1C	i	2.7%	0.43
34	N#CC1=C(N)Oc2n[nH]c(-c3cccs3)c2C1c1ccsc1 (stereo not given)	i	1.8%	-0.53
39	CC(C)(C)NC(=O)Cn1c(SCC(=O)NCc2cccs2)nc2ccccc21	i	-2.2%	-0.53
49	CN1/C(=C\C(=O)c2cccs2)Sc2ccccc21	i	-5.5%	-0.8

# The listing continues.
nr	mol	MT1-MMP reporter	Hsc70 ATP site	WNV NS2B-NS3 inh
61	CCCn1c(CCc2ccccc2)nnc1SCC(=O)N1CCOCC1	i	-2.8%	0.59
62	CCC(=O)c1ccc(OCC(O)CN2CCOCC2)cc1 (stereo not given)	i	2.3%	0.28
63	CN(CCO)C(=O)CCC(=O)Nc1ccc(S(N)(=O)=O)cc1	i	-10.0%	0.53
64	COc1ccc2c(-c3cccnc3)cc(=O)[nH]c2c1	i	-2.1%	-0.06
65	COc1ccc(C2(C)NC(=O)N(CC(=O)Nc3ccc4c(c3)OCO4)C2=O)cc1OC (stereo not given)	i	4.4%	.
66	COc1ccc(OC)c(C2C(C#N)=C(N)Oc3cc(C)[nH]c(=O)c32)c1 (stereo not given)	i	5.3%	-0.6
67	CCC(C)(C)n1nnnc1C(c1cccnc1)N1CCN(c2cccc(C(F)(F)F)c2)CC1 (stereo not given)	i	5.0%	.
68	Cc1ccc2[nH]c3c(c2c1)CCC3=O	i	-4.1%	0.05
69	O=C(NCc1ccc2c(c1)OCO2)C1CC(c2ccc(Cl)cc2)=NO1 (stereo not given)	i	-0.2%	.
70	COC(=O)c1c(N)n(-c2ccc(NC(C)=O)cc2)c2nc3ccccc3nc12	i	-1.1%	1.35
71	CCNC(=O)CCn1nc(-c2ccc(Cl)cc2)c2ccccc2c1=O	i	6.5%	0.31
72	CC(=O)CCn1c(=O)n(CCC(C)=O)c(=O)n(CCC(C)=O)c1=O	i	-2.2%	0.67
73	Cc1nnc(SCCn2c(Br)nc3c2c(=O)[nH]c(=O)n3C)s1	i	3.0%	0.87
74	CCN(c1ccccc1)S(=O)(=O)c1cc(C(=O)O)ccc1C	i	7.5%	.
75	CCC(C)[C@H](NC(=O)NCc1ccco1)C(=O)O (stereo not given in full)	i	0.9%	-0.99
76	CC(=O)c1c(C)[nH]c(C(=O)OCC(=O)Nc2ncc(Cl)c(C)c2Cl)c1C	i	-0.2%	-0.63
77	COc1cc2cc(CN(CCN3CCCC3)C(=O)Nc3ccc(F)cc3)c(=O)[nH]c2cc1OC	i	-4.2%	1.31
78	Oc1ccc(-c2onc3ccc(Cl)cc23)cc1	i	-8.9%	.
79	Cc1ccc(Cn2nnc3c(=O)n(CC(=O)N4CCN(c5ccccc5)CC4)cnc32)cc1	i	-0.3%	1.17
80	COc1cc(C2C(C#N)=C(N)OC3=C2C(=O)CCC3)cc(OC)c1OC(=O)N1CCOCC1 (stereo not given)	i	-1.0%	0.23
81	O=C(NCc1ccccn1)C1CCN(S(=O)(=O)c2cnc[nH]2)CC1	i	3.9%	1.07
82	COC(=O)C1=C(N)Oc2cc(C)n(CCCn3ccnc3)c(=O)c2C1c1cccc(Cl)c1 (stereo not given)	i	-4.3%	-1.05
83	c1ccc(-c2nnc3sc(-c4cc5ccccc5o4)nn23)cc1	i	1.0%	1.44
84	O=C(Nc1ccc2c(c1)OCCO2)C1CCCN1S(=O)(=O)c1ccc(Cl)cc1 (stereo not given)	i	0.8%	0.22
85	COc1ccc(OC)c(S(=O)(=O)Nc2ccc(Oc3ccccc3)cc2)c1	i	0.2%	.
86	NC(=O)CSc1nnc(-c2ccncc2)n1CCc1ccccc1	i	-3.6%	-0.83
87	CCC(=O)Nc1ccc(Br)c(Cl)c1	i	0.1%	0.78
88	CCOC(=O)CSc1ccc2nnc(-c3ccccc3)n2n1	i	3.2%	-1.21
89	CCOC(=O)C(NC(=O)c1ccc(F)cc1)(Nc1nnc(C)s1)C(F)(F)F (stereo not given)	i	3.1%	-0.28
90	Cc1ccc(C(C)C)c(OCC(=O)Nc2ccc(N3CCN(S(C)(=O)=O)CC3)cc2)c1	i	-0.1%	-0.19
91	COC(C(=O)Nc1ccc(F)cc1)c1ccccc1 (stereo not given)	i	-4.0%	.
92	COc1cccc(NC(=O)N2CCCC(C(=O)Nc3ccccc3OC)C2)c1 (stereo not given)	i	-0.6%	0.11
93	O=C(OCC1COc2ccccc2O1)c1ccccc1F (stereo not given)	i	2.8%	2.54
94	CCn1c(SCC(=O)Nc2ccc(C)cc2)nnc1-c1ccc(O)cc1	i	3.6%	.
95	Cc1cccc(C)c1NC(=O)c1cc(S(=O)(=O)N2CCOCC2)ccc1F	i	-2.2%	-0.44
96	CCN(C(=O)COC(=O)c1[nH]c(C)c(C(C)=O)c1C)C1CCS(=O)(=O)C1 (stereo not given)	i	1.7%	.
97	CC(=O)[C@@]1(O)CC[C@H]2[C@@H]3CCC4=CC(=O)CC[C@]4(C)[C@H]3CC[C@@]21C	i	4.9%	.
98	COC(=O)c1ccc(NC(=O)CCn2c(=O)oc3ccccc32)cc1	i	-0.2%	0.1
99	COc1ccc(OCCN2CCN(C3CC(=O)N(CCC(C)C)C3=O)CC2)cc1 (stereo not given)	i	-7.4%	-0.47
100	Cc1c(C#N)c2ncnc(-c3ccccc3)c2n1-c1ccccc1	i	-4.3%	-0.47
101	COC(=O)c1[nH]c2cccc(OC)c2c1NC(=O)CCN1CCN(c2cccc(Cl)c2)CC1	i	-0.2%	-1.07
102	Cc1cccc(-c2nnc(SCC#N)n2-c2cccc(Cl)c2)c1	i	3.5%	-1.14
103	CCCN(C(=O)Cc1nc(N)n[nH]1)C1(C(=O)Nc2ccccc2C)CCCCC1	i	-1.1%	.
104	CCOC(=O)N1CCN(C(=O)CSc2nc3c(cnn3-c3ccccc3)c(=O)[nH]2)CC1	i	-1.3%	-0.77
105	CC(C)Oc1ccc(NC(=O)Oc2ccccc2)cc1	i	4.1%	-0.04

# Compound activity from PubChem.
